From PubChem
StopGo reporter: FMDV 2A StopGo reporter, luciferase signal; human cells with a luciferase reporter of 2A StopGo recoding; control for the full effect not named in the record; Potency, µM (series often up to 57.9 µM), for the others: top-dose signal change, negative = less light; hit rate 1.2% among 410,000; active = well fitted falling curve with a large enough effect; inconclusive = small, poorly fitted or top-dose-only effect; inactive = no such curve, though single readings can be large or run the other way; tested in HEK293T cells; also: nearly all actives have a fitted effect of over 45% in size; luciferase light after 4 h
RE007 growth inh: less growth of the S. pombe RE007 Vpr strain; S. pombe RE007 Vpr strain, BacTiter-Glo ATP luminescence, 24 h; control for the full effect not named in the record; Potency, µM (top dose mostly 92.2 µM), without a hit: at the top dose activity change, negative = less growth; hit rate 0.21% among 360,000; AID 651644; active = well fitted falling curve with a large enough effect; inconclusive = small, poorly fitted or top-dose-only effect; inactive = no such curve, though single readings can be large or run the other way;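 also: nearly all actives have a fitted effect of over 50% in size; the assay follows cell death caused by Vpr and the record does not say whether a fall means rescue or toxicity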
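Fission yeast RE007 carrying one integrated HIV-1 vpr copy, seeded at OD 0.01 in PMG+AL medium with 23 nL pinned compound. Grown 24 h at 30 degrees; viability read by BacTiter-Glo luminescence after 5 min.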
Starred values were filed as active, the others as inactive; ? = inconclusive; [ ] = dose if it differs, or a comment. % is scaled to controls: 0 for no effect and ±100 for the full control effect; potency is read from the fitted curve at half-maximal effect. Only part of the results is shown. The share of hits here may be higher or lower than overall.

SMILES	StopGo reporter	RE007 growth inh
Cc1ccc(NC(=O)Cn2c(=O)ccn(Cc3ccccc3)c2=O)cc1S(=O)(=O)N1CCOCC1	-29%	3%
COc1ccc(CC(N)c2csc(NC(=O)Nc3cc(OC)ccc3OC)n2)cc1 (stereo not given)	0%	7%
CCOC(=O)c1ccccc1NC(=O)COC(=O)C(CC)Oc1ccccc1 (stereo not given)	-15%	-2%
CCC(=O)N1CCC1(C)C(=O)Nc1ccc(F)cc1 (stereo not given)	-9%	1%
Cc1ccc2ccccc2c1C(O)c1ncc(-c2ccccc2)[nH]1 (stereo not given)	32%[activator]	-12%
Cn1c(=O)c2cc(NC(=S)NC3CC3)ccc2n1Cc1ccccc1	31%[activator]	-13%
CCOC(=O)C1=C(C)NC(C)=C(C(=O)OCC)C1C(=O)OCC(=O)Nc1ccc(NC(C)=O)cc1	-6%	-6%
C[C@H](O)C#Cc1cnc2c(c1)C(=O)N([C@H](C)CO)C[C@@H](C)[C@H](CN(C)C(=O)Nc1ccc(C(F)(F)F)cc1)O2	6%	1%
CCOC(=O)C1Nc2c(F)cc(C)cc2C2c3ccccc3CC12 (stereo not given)	-20%	-6%
COc1cc(Cn2c3ccc(NC(=O)NCc4ccc(F)cc4)cc3c(=O)n2C)ccc1F	10%	-9%[18.4 µM]
CC1CCN(CC(O)COC2CC(C)CC(C)(C)C2)CC1 (stereo not given)	-21%	9%
CCc1ccc([C@@H]2C[C@H]3[C@@H](CN2S(=O)(=O)c2ccc(C)cc2)C(=O)C[C@@H](c2ccc(C)cc2)N3S(=O)(=O)c2ccc(C)cc2)cc1	-21%	6%
Cn1cc(-c2cccc3nncn23)cn1	0%	6%
Cc1cc2c(cc1C)-n1nnnc1C(N1CCN(CC(=O)NC(C)C)CC1)C(=O)N2 (stereo not given)	-11%	-2%
COc1cccc(CNc2nc3cc(-c4ccc(F)cc4)sc3c(=O)n2C)c1	-13%	6%

Record cards, from the list above. Screens in order: StopGo reporter, RE007 growth inh
CCC(=O)N1CCC1(C)C(=O)Nc1ccc(F)cc1 (stereo not given) across the screens: -9%, 1%
CCOC(=O)C1Nc2c(F)cc(C)cc2C2c3ccccc3CC12 (stereo not given) across the screens: -20%, -6%

The list continues:
SMILES	StopGo reporter	RE007 growth inh
O=C1C=CC(=O)N1	-20%	?
O=C(c1[nH]c(C(F)(F)F)nc1-c1ccccc1)N1CCc2c([nH]c3ccccc23)C1	-16%	5%
Cc1ccc(S(=O)(=O)Nc2ccc3c(c2)C(=O)N([C@H](C)CO)C[C@H](C)[C@@H](CN(C)C(=O)NC2CCCCC2)OCCCC[C@@H](C)O3)cc1	-30%	3%
C[C@@H]1CN([C@@H](C)CO)C(=O)CCCn2nncc2CO[C@@H]1CN(C)C(=O)Nc1ccc(C(C)(C)C)cc1	?	12%
Cc1cc(C)cc(NC(=O)c2cccc(NC(=O)c3ccco3)c2)c1	-13%	?
O=C(CC1CCCC1)N1CCN(S(=O)(=O)c2c(F)cccc2F)CC1	-21%	5%
Cc1cn([C@H]2C[C@H](O)[C@@H](CCC(=O)NCc3ccc4c(c3)OCO4)O2)c(=O)[nH]c1=O	0%	4%
CC(C)N1CCC(C)(C(=O)Nc2ccc(-n3cccc3)cc2)C1 (stereo not given)	-2%	13%
CCN(c1ccccc1)S(=O)(=O)c1ccc(C(=O)NC2CCCCC2)cc1	?	-1%
Cc1ccc(-c2nc3ncccn3c2N)cc1	9%	-5%
Cc1ccc(-c2nc3ccc(Cl)cn3c2Cc2ccsc2)cc1	31%[activator]	-13%
COc1cccc(NC(=O)C2(C)CCN2C(=O)Cc2cccc3ccccc23)c1 (stereo not given)	-22%	-3%
CCCCCCn1c(=O)n2n(c1=O)C[C@]1(OC(=O)Nc3c(C)noc3C)CN(S(=O)(=O)c3ccc(C)cc3)C[C@]1(O)C2	?	-12%
COc1ccc(C(=O)NCC2CCCN2S(=O)(=O)c2ccccc2)cc1OC (stereo not given)	-18%	-1%
CC1(C(=O)NCCc2ccccc2)Cc2c(-c3ccc4c(c3)OCO4)ccnc2O1 (stereo not given)	-16%	-10%
CN1OC[C@@H]2CN(C(=O)C(C)(C)C)[C@H](c3cccc(Br)c3)C[C@@H]21	30%	6%
C1=NCCCN2CCCCC12 (stereo not given)	0%	9%
CCOC(=O)c1cc2c(OC)c(OC)ccc2c2[nH]cc(C#N)c(=O)c12	-4%	13%
O=S1(=O)CCN(C2CCCCCCCCCCC2)CC1	?	0%
COc1cccc(S(=O)(=O)N(C)C[C@@H]2OCc3cnnn3CCCC(=O)N([C@H](C)CO)C[C@@H]2C)c1	0%	-4%
COC(=O)c1cccc(CN2C(=O)C(C)Sc3cc(Cl)ccc32)c1 (stereo not given)	17%	6%
Cc1ccc(C(O)c2ncc(-c3ccc(Cl)cc3)[nH]2)cc1 (stereo not given)	4%	-17%
O=C(COc1ccccc1)NC(=S)Nc1cccc2c(O)cccc12	25%	-5%
CC(C)(C)c1cc(NC(=O)C2(C)CCN2C(=O)C2(c3ccccc3)CCCC2)no1 (stereo not given)	-4%	-16%[18.4 µM]
O=C(NCC1CC1)c1cc(-c2ccccc2)nn1CC1CC(c2cccc([N+](=O)[O-])c2)=NO1 (stereo not given)	-12%	-11%
COC(=O)C[C@H]1CC[C@H](NS(=O)(=O)c2cn(C)cn2)[C@@H](CO)O1	-1%	4%
CC1(C(=O)NS(=O)(=O)c2ccc(Cl)cc2)CCN1C(=O)CCc1cccs1 (stereo not given)	2%	-7%[18.4 µM]
COc1ccccc1CNc1nc(Nc2ccccc2OC)c2sccc2n1	?	-18%
Cc1ccc(S(=O)(=O)N2CC3(O)CN(C(=O)OC(C)C)N(C(=O)OC(C)C)CC3(OC(=O)NC3CC3)C2)cc1 (stereo not given)	-12%	-15%
Cc1ccc(S(=O)(=O)N2[C@@H](Cc3ccccc3)CO[C@H]2CC(=O)c2ccccc2)cc1	-1%	7%
NC(=O)c1cccc(-c2ccnc3c2CC(C(=O)NCc2cccc(Cl)c2)O3)c1 (stereo not given)	-8%	-14%[18.4 µM]
Cc1cccc(C)c1-n1nnnc1C(c1ccnc2ccccc12)N1CCCC1 (stereo not given)	-13%	32%
CCOC(=O)C1(C)CCCN1C(=O)c1cccc2ccccc12 (stereo not given)	-21%	6%
Cc1cc(C(=O)N2CCC2(C)C(=O)NS(=O)(=O)c2ccccc2Cl)nn1C (stereo not given)	-8%	5%
O=C(NCc1ccccc1)c1cc(C2CCCN(C(=O)c3ccc4c(c3)CCO4)C2)on1 (stereo not given)	-20%	-17%[18.4 µM]
CNc1cc(-c2ccc(C(=O)OC)cc2)ncn1	18%	-9%
Fc1ccc(-c2nc3c4ccccc4ccn3c2Cc2cccc(Cl)c2)cc1	11%	0%
C[C@H](c1ccccc1)N1C[C@@H](COCc2ccccc2)Oc2cc(N3CC[C@H](N(C)C)C3)ccc2S1(=O)=O	-6%	9%
CC1(C(=O)Nc2ccc3c(c2)OCCO3)CSCC(=O)N1Cc1ccco1 (stereo not given)	3%	9%
Cc1ccccc1NS(=O)(=O)c1ccc(C(=O)NCC2(N3CCOCC3)CCCCC2)cc1	-2%	2%
O=C(COC(=O)/C=C/c1ccc2c(c1)OCO2)NCc1ccc(F)cc1	-25%	-9%
Clc1ccc2nc(-c3ccco3)c(Cc3ccccc3)n2c1	?	-28%
Cn1c2c(c3ccccc31)CCN=C2c1ccccc1	-5%	-12%
S=c1[nH]ncn1/N=C/c1ccco1	-8%	-4%
Cn1c(=O)c2cc(NC(=O)NCc3ccc(F)cc3)ccc2n1C	5%	5%[18.4 µM]
COCCNC(=O)C1(C)CCCN(Cc2ccc(-c3ccccn3)cc2)C1 (stereo not given)	-17%	-2%
COc1ccccc1C(=O)N/C(=C\c1cn(C)c2ccccc12)C(=O)NCCN1CCOCC1	-5%	-2%
CC(C)C[C@H]1CN(CCCC[C@@H]2CNC(=O)C(=O)N2CC2CCCCC2)C(=O)C(=O)N1CC1CCCCC1	35%[activator]	0%
CC1Sc2ccccc2N(Cc2ccc(OC(F)(F)F)cc2)C1=O (stereo not given)	-10%	1%
COC(=O)[C@]12CCCCC=C1N(CCc1ccc(OC)c(OC)c1)C(=O)[C@H](CC(=O)NCC13CC4CC(CC(C4)C1)C3)C2	-24%	8%
O=C1NCN(c2ccccc2)C12CCN(C(CCc1ccccc1)c1nnnn1Cc1ccccc1)CC2 (stereo not given)	-11%	-11%
CC(=O)Nc1ccccc1OCCCN1CCC(C(O)(c2ccccc2)c2ccccc2)CC1	-18%	-19%
CCC(C(=O)Nc1c(C)cccc1C)n1c(-c2ccc(-c3ccccc3)cc2)nc2ccccc21 (stereo not given)	-18%	-7%
CCOC(=O)C1=C(Nc2ccccc2)CSC1	-10%	3%
O=C(c1cc2c(c(-c3cccc(-c4ccncc4)c3)n1)[C@@H](CCO)N(C(=O)c1ccc3c(c1)OCO3)C2)N1CCOCC1	-21%	0%
COc1ccc(NC(=O)C[C@H]2C(=O)N(C3CCCCC3)C[C@@H]2c2ccc(OC)cc2)cc1	-16%	8%
CCCC[C@@H]1CNC(=O)C(=O)N1CCCCC1CCCCC1	-18%	22%
CN1C(=O)[C@@](O)(CC(=O)c2ccccc2)c2cc(Br)ccc21	-9%	21%
CCCCCC(=O)N1C[C@@H](n2cc(COC(=O)c3ccccc3)nn2)[C@H](O)C[C@@H]1c1ccc(Cl)cc1	?	-4%
CCNC(=O)C1CCCN(C(=O)Cc2ccc3ccccc3c2)CC1 (stereo not given)	-4%	7%

Looked up by structure from the list above, 2 records:
SMILES	StopGo reporter	RE007 growth inh
CCC(C(=O)Nc1c(C)cccc1C)n1c(-c2ccc(-c3ccccc3)cc2)nc2ccccc21 (stereo not given)	-18%	-7%
CCOC(=O)C1=C(Nc2ccccc2)CSC1	-10%	3%

An excerpt from above in order of length of the SMILES, largest number first.
SMILES	StopGo reporter	RE007 growth inh
COC(=O)[C@]12CCCCC=C1N(CCc1ccc(OC)c(OC)c1)C(=O)[C@H](CC(=O)NCC13CC4CC(CC(C4)C1)C3)C2	-24%	8%
Fc1ccc(-c2nc3c4ccccc4ccn3c2Cc2cccc(Cl)c2)cc1	11%	0%
COc1ccccc1CNc1nc(Nc2ccccc2OC)c2sccc2n1	?	-18%
Cn1c2c(c3ccccc31)CCN=C2c1ccccc1	-5%	-12%
CCOC(=O)C1=C(Nc2ccccc2)CSC1	-10%	3%
S=c1[nH]ncn1/N=C/c1ccco1	-8%	-4%

Next results:
SMILES	StopGo reporter	RE007 growth inh
CCCCN1C(=O)C(CC(=O)NCCN2CCOCC2)CC(C(=O)N2CCCCCC2)=C1C (stereo not given)	-15%	3%
COc1cccc(OC)c1C(=O)NCCc1ccccc1	-24%	-1%
Cc1ccc(SC2=C[C@@]3(O)CC[C@@H](O)[C@@](Sc4ccc(C)cc4)(C2=O)[C@H]3O)cc1	?	4%
CCN1C(=O)[C@H]2[C@@H](c3ccc(C(F)(F)F)cc3)N[C@]3(CCCN(Cc4ccc(OC)cc4)C3=O)[C@H]2C1=O	-21%	2%
CCOC(=O)[C@]12CCCC=C1N(Cc1ccc(Cl)cc1Cl)C(=O)[C@H](CC(=O)NCCc1ccccc1OC)C2	-23%	-5%
CC(C)C[C@H]1CN([C@@H](Cc2ccc(O)cc2)CN2CCC[C@H]2CN2C(=O)C(=O)NC[C@@H]2Cc2ccc(O)cc2)C(=O)C(=O)N1CCc1ccccc1	-17%	5%
OC[C@H]1O[C@@H](c2nc(-c3nc(-c4ccc(F)cc4)no3)cs2)[C@H](O)[C@@H]1O	-12%	-8%
CCOC(=O)CNC(=O)N1Cc2cc(-c3ccc(OC)cc3)ccc2-n2nncc2C1	3%	4%
CCCCOCCCNC(=O)C[C@@H]1C[C@@]2(C(=O)OCC)CCCC=C2N(Cc2cccc3ccccc23)C1=O	0%	6%
COc1ccccc1N1CCN(S(=O)(=O)CCNC(=O)C(C)Oc2ccccc2)CC1 (stereo not given)	?	4%
CCN1CCCC1CNC(=O)c1ccc2c(c1)NC(=O)/C(=C\c1ccccc1Cl)S2 (stereo not given)	-20%	1%
COCCNC(=O)C1(C)CCCN(C(=O)COc2ccccc2)C1 (stereo not given)	-15%	2%
COCCN1C[C@@H](CO)O[C@@H](n2cnc3c(N4CCCC4)ncnc32)C1	0%	14%
O=C(/C=C/c1ccc(Cl)cc1)N1CCN(CCN2C(=O)c3cccc4cccc(c34)C2=O)CC1	-13%	3%
COC(=O)[C@H]1C[C@@]2(O)CN(S(=O)(=O)c3ccc(C)cc3)C[C@@]2(OC(=O)Nc2cccs2)C[C@H]1C(=O)OC	0%	-3%
CC(C)(C)OC(=O)N(Cc1ccccc1)Cc1cccc(OCc2cccc(NC(=O)C3CC3)c2)c1	?	3%
O=C(CCc1nc2sc3c(c2c(=O)[nH]1)CCCC3)NCCc1ccc(Cl)cc1	-13%	-5%
O=C1NC[C@@H](CCCCN2C[C@H](Cc3ccc(O)cc3)N(CC3CCCCC3)C(=O)C2=O)N(CCc2ccccc2)C1=O	-11%	-9%
CCCc1cc(=O)n2[nH]c(C)c(-c3ccccc3OC)c2n1	0%	-12%
CCCCC(=O)N(C)c1c(CC)nc2c(OCc3cccc(Cl)c3)cccn12	?	-1%
Cc1ccc(S(=O)(=O)N(C)C[C@@H]2OCc3cnnn3CCCC(=O)N([C@H](C)CO)C[C@H]2C)cc1	4%	-5%
Cn1cc([C@]2(O)C(=O)Nc3cccc(Cl)c32)c2ccccc21	-19%	-4%
